# RN4220 kill – S. aureus RN4220 growth inhibition. OD600, 16 h. inhibition, % (no concentration beside the values). actives 0.33% (n = 330,000);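 active = z-score of -3 or lower and OD600 up to 0.18 on both plates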;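 note: plate controls were untreated cells for no effect and reference antibiotic for full effect; stock transfer was 100 nL into about 80 µL; one replicate is shown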
# PrP 5UTR inh – inhibition of PrP 5' UTR reporter expression; cell-based PrP 5' UTR mRNA reporter, plate reader; inhibition, % (no concentration beside the values); actives 0.35% (n = 340,000);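 active = every replicate at 50% or more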;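 note: 0 = median of the neutral control wells; tested in H4 reporter cells; numbers are from one replicate; inactives centre near -14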
# Autofluor counter – compound fluorescence in toxin protease inhibitor counterscreen. compound autofluorescence counterscreen, microsphere flow cytometry; hits give high values. actives 3.1% (n = 360,000). fluorescence intensity (test concentration not listed). AID 624483;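 active = at least 3 SD above the mean of all compounds, about 16000 in these data; inconclusive = too few beads counted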;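 note: 100 nL of 1 mM stock went into each well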
# ugtP null kill – growth inhibition of S. aureus ugtP deletion strain; AID 1259309; growth inhibition, % (concentration not given with the values); actives 0.54% (n = 330,000); S. aureus RN4220 ugtP deletion, OD600 growth, 16 h; some inactives read as strong as hits;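 active = z-score under -3 and OD600 up to 0.15 on both plates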;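 note: plate controls were untreated wells for no effect and antibiotic for full effect; wells of about 80 µL received 100 nL stock; the first replicate is given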
# Mtb hypoxia inh – inhibitors of hypoxia-regulated fluorescent reporter in Mycobacterium tuberculosis | actives 0.1% (n = 300,000) | M. tuberculosis hypoxia-regulated fluorescent reporter, fluorescence | AID 1159583 | fluorescence inhibition, % (no concentration beside the values);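 active = 35 to 45% if threefold the growth effect, above 45% if 1.5-fold the growth effect; inactive = the rest, general growth blockers included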;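 note: wells of about 50 µL received 100 nL stock; 0% = vehicle wells and 100% = reference inhibitor wells; whole bacteria with a GFP reporter of the hypoxia response; strong numbers were not always called active; many hits fall short of the cut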
# BJeLR lethal – BJeLR cell viability loss | AID 1554 | actives 0.17% (n = 300,000) | BJeLR (HRASV12) viability, CellTiter-Glo ATP luminescence, 48 h; reference of the scale not given here | inhibition, % (concentration not given with the values);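 active = replicate mean above 50%; inconclusive = above 50% but judged a plate artefact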;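 note: 50 nL library stock added to about 25 µL; numbers are from one replicate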
# Mtb hypoxia inh growth – also measured in Mtb hypoxia inh; calls as there; growth inhibition, %; measured here: M. tuberculosis growth (absorbance);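 0% = vehicle and 100% = reference antibiotic; read after six days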
# Starred values were filed as active, the others as inactive; ? = inconclusive; nt = not tested or not shown; & = joins results of further samples.
SMILES,RN4220 kill,PrP 5UTR inh,Autofluor counter,ugtP null kill,Mtb hypoxia inh,Mtb hypoxia inh growth,BJeLR lethal
COC(=O)c1cnn2c(C)c(Cc3cccc(F)c3)c(C)nc12,3.2,-1,4348,13,17,7,3
CCCCN(C(=O)c1ccc2c(c1)OCO2)C1CCS(=O)(=O)C1 (configuration not stated),3.6,-4,?,3,8,-5,3
CC(CNC(=O)c1ccccc1Cl)c1ccccc1 (configuration not stated),9.4,-29,3591,8,22,11,-1
CCN(C(=O)COC(=O)CNC(=O)c1ccc(C)c(C)c1)C1CCS(=O)(=O)C1 (configuration not stated),1.8,3,1973,4,4,-8,-6
O=C(COC(=O)c1ccc(N2CCCC2=O)cc1)Nc1ccccc1,6.6,4,2809,12,-4,-5,nt
Cc1ccccc1-c1cc2nc(C)c(C)c(=O)n2[nH]1,3.6,-25,4097,5,3,2,10
CNC(=O)c1ccc(-n2nc(C)cc2-c2ccccc2)cc1,4.8,-25,7733,1,3,10,-1
CCOc1cccc(CNCCSc2nnnn2C)c1,11,-14,4920,7,12,5,-5
c1ccc(CSC2=NNC(c3ccccn3)S2)cc1 (configuration not stated),4.6,-28,3637,7,1,17,6
COc1ccccc1-c1cc(C(=O)Nc2cccnc2)no1,6.6,46,22187*,-3,9,6,6
O=C(Nc1ccccc1C(F)(F)F)c1ncn[nH]1,4.3,-8,nt,13,12,-5,-2
CCCC(=O)Nc1cccc(NC(=O)c2ccc(C)c([N+](=O)[O-])c2)c1,21,-18,23307*,-2,13,5,-2
O=C(Nc1c[nH]c(=O)[nH]c1=O)c1ccccc1Cl,-0.9,-18,3612,7,9,-6,-1
Fc1ccc(N2CCN(/C=C/c3nnnn3-c3ccccc3)CC2)cc1,-2.2,-21,2055,0,-2,0,-4
CCCC(=N)C1=C(O)CC(CC(C)SCC)CC1=O (configuration not stated),1.7,-20,4901,-5,nt,nt,-4
CCOC(=O)C1=C(C)NC(C)=C(C(=O)OCC)C1C(=O)OCC(=O)NCc1ccc(F)cc1,-0.9,nt,?,2,3,9,nt
O=[N+]([O-])c1cc(-c2ncccn2)cs1,11,-17,2507,42,-4,16,2
OCCC#Cc1ccc(CN2CCN(Cc3ccsc3)C(CCO)C2)cc1 (configuration not stated),3.9,-5,4471,6,13,3,3
CC(=O)Nc1ccc(NC(=O)Nc2ccc(C)cc2C)cc1,nt,-21,2410,nt,nt,nt,0
CC(C)(C)N1C(=O)c2ccc(C(=O)Nc3ccc(C(=O)O)cc3)cc2C1=O,7.6,-26,4315,5,2,14,10
CCOC(=O)Cn1c2ccc(OC)cc2c2nc3ccccc3nc21,0.6,-12,4083,0,5,-1,3
COc1cccc(OC)c1C(=O)OCC(=O)N1CC(C)CC(C)C1 (configuration not stated),-1.5,-10,3712,2,-2,-4,nt
COCCSc1ccccc1C(=O)Nc1ccc([N+](=O)[O-])cc1OC,8.6,19,4050,13,9,6,6
O=C1C(Cc2ccccc2)NCCCCC(c2ccco2)N1Cc1ccccc1 (configuration not stated),10&15,nt,nt,12&13,8&24,0&14,nt
COc1cc(C=NNC(=O)c2cc(C)oc2C)ccc1O,0.7,nt,nt,-2,10,3,nt
S=C(Nc1ccccc1Cl)NC1CCC(NC(=S)Nc2ccccc2Cl)CC1 (configuration not stated),-3.6,-11,4638,4,10,-4,-7
O=C(Cc1ccc(Cl)cc1)Nc1ccccc1N1CCN(C(=O)c2ccccc2)CC1,1.2,-13,5550,-4,-2,7,6
COc1ccc(NC(=O)CSc2nccn2Cc2ccccc2)cc1,0.1,-35,6308,1,-4,14,-11
CC(C)CN(C(=O)CCNC(=O)c1ccc(Cl)cc1)c1c(N)n(CC(C)C)c(=O)[nH]c1=O,-1.3,-10,4154,5,-6,1,nt
COc1cc2cc(C(c3nnnn3Cc3ccc(F)cc3)N3CCCCCC3)c(=O)[nH]c2cc1OC (configuration not stated),6.7,-14,18413*,4,0,0,nt
O=C(NCC(=O)N1CCC2(CC1)NCCc1[nH]cnc12)c1ccc(Br)cc1,1.5,-11,4438,7,6,-7,-2
O=C1OCC2CCCN2C(=O)C(CC(=O)N(CCO)Cc2ccccc2)CC=CCC1Cc1ccc(F)cc1 (configuration not stated),1.6&6.4&4.4&1.2,nt,nt,-3&6&5&0,-1&-4&0&5,1&-8&8&10,nt
COc1cccc(CC(=O)OCC(=O)Nc2c(C)nn(-c3ccccc3)c2C)c1,5.1,-8,5524,3,10,4,nt
COCCn1c(C)cc(C(=O)COC(=O)c2ccc(S(=O)(=O)N(C)C)cc2)c1C,4.7,-1,3577,4,11,6,nt
COc1ccc(C2c3[nH]c4ccccc4c3C[C@H]3C(=O)N(C)CC(=O)N23)cc1OC (some centres not stated),-3.2,-14,3613,-10,-10,4,-7
CCCCC1(C)OC(=O)C(=Cc2ccc(N(C)C)cc2)C(=O)O1 (configuration not stated),0.5,-3,3295,-1,7,10,1
Cn1cnnc1SCCNS(=O)(=O)c1cccc([N+](=O)[O-])c1,1.2,-15,5496,5,4,0,3
CCOc1ccc(NC(=O)NC2CCCCCCC2)cc1,2.9,-65,6558,1,14,20,nt
C/[N+]([O-])=C\c1cccc(OCCN2CCN(c3ncc(C(F)(F)F)cc3Cl)CC2)c1,2.8,-24,3358,11,0,-7,0
CCCn1nc(-c2nnc(-c3ccc(C)c(C)c3)o2)c2ccccc2c1=O,2.5,-21,4226,8,3,2,-4
CCCCc1nc2sc3c(SCCN(C)C)ncnc3c2c2c1CCC2,-4.0,0,?,0,nt,nt,-7
CCC(=O)Nc1cccc(NC(=S)NC(=O)c2ccc(Cl)cc2Cl)c1,7.9,-53,2399,29,17,0,-1
CCOc1cc(/C=N/NC(N)=O)cc(Br)c1OCC(=O)Nc1ccccc1C,nt,1,3075,nt,nt,nt,1
COC(=O)CCCCC(=O)C1C(=O)CC(C)(C)C(C(=O)OC)C1=O (configuration not stated),0.8,-24,2534,0,nt,nt,0
O=c1/c(=C/c2ccc(CNS(=O)(=O)c3ccccc3)o2)sc2n1CCN=2,nt,-26,8087,nt,nt,nt,-7
CN(C)C(=O)N1CCN(C(=O)c2ccccc2Sc2ccccc2C#N)CC1,3.1,-27,8219,0,-2,8,-1
CCN(CC)CCNC(=O)c1cn(CC)c2cc(N3CCN(C)CC3)c(F)cc2c1=O,4.5,-18,3456,34,3,-10,-9
O=C1/C(=C\c2ccc(O)c(O)c2)C(c2ccccc2)=NN1c1ccccc1,11,-27,4341,5,8,1,6
O=C(N/N=C/c1ccccc1[N+](=O)[O-])c1ccncc1,nt,-16,3648,nt,nt,nt,-8
Cc1ccc(NC(=O)NC2CCCc3ccccc32)cc1 (configuration not stated),0.7,-13,5611,-3,10,2,4
CN(C)S(=O)(=O)N1CCN(c2ccc([N+](=O)[O-])c(N3CCCCC3)c2)CC1,1.0,-7,4114,7,9,5,-1
OCCC1CN(Cc2cn[nH]c2C2CCCCC2)CCN1C1CCCCC1 (configuration not stated),1.5,-17,4521,2,3,1,5
Cc1cc(-c2nn(-c3ccccc3F)cc2CNCCc2cnccn2)c(C)s1,15,15,4119,5,10,2,-2
C[C@]12CCC3c4ccc(O)cc4CCC3C1CCC2OC(=O)CCC(=O)O (some centres not stated),18,nt,nt,1,0,1,nt
Cc1c(C(=O)Nc2ccc3c(c2)OCO3)oc2ccccc12,-0.9,-155,5001,2,5,-1,12
COCCCn1c(=C(C#N)C(=O)NCCOC)sc(=Cc2ccc(OC(F)F)c(OC)c2)c1=O,6.9,nt,nt,-6,15,3,nt
CCC(C(=O)Nc1ccc(S(=O)(=O)Nc2ncccn2)cc1)c1ccccc1 (configuration not stated),6.0,-16,3614,7,4,12,1
COc1cccc(NC(=O)N2CCCC2C(=O)NCc2ccccc2)c1 (configuration not stated),-1.9,10,3285,3,2,6,-5
CN(C)C(=S)SCCn1c(N)nc(N(C)C)nc1=O,3.9,-27,4164,5,11,4,4
O=C1c2ccccc2NC(c2ccccc2O)N1O (configuration not stated),1.7,-21,3497,2,2,0,-10

# Complete entries, quoted from the list. Order of values: RN4220 kill | PrP 5UTR inh | Autofluor counter | ugtP null kill | Mtb hypoxia inh | Mtb hypoxia inh growth | BJeLR lethal
# C[C@]12CCC3c4ccc(O)cc4CCC3C1CCC2OC(=O)CCC(=O)O (some centres not stated) reads 18 | nt | nt | 1 | 0 | 1 | nt
# CCCCc1nc2sc3c(SCCN(C)C)ncnc3c2c2c1CCC2 reads -4.0 | 0 | ? | 0 | nt | nt | -7
# CN(C)S(=O)(=O)N1CCN(c2ccc([N+](=O)[O-])c(N3CCCCC3)c2)CC1 reads 1.0 | -7 | 4114 | 7 | 9 | 5 | -1
# CCC(=O)Nc1cccc(NC(=S)NC(=O)c2ccc(Cl)cc2Cl)c1 reads 7.9 | -53 | 2399 | 29 | 17 | 0 | -1
# Cc1cc(-c2nn(-c3ccccc3F)cc2CNCCc2cnccn2)c(C)s1 reads 15 | 15 | 4119 | 5 | 10 | 2 | -2

# Remaining list, next part.
SMILES,RN4220 kill,PrP 5UTR inh,Autofluor counter,ugtP null kill,Mtb hypoxia inh,Mtb hypoxia inh growth,BJeLR lethal
COc1ccc(Cl)cc1C(=O)Nc1ccccc1N1CCN(C(=O)C(C)C)CC1,-0.1,-5,9030,-7,-2,7,-7
Cn1nnc2cc(NC(=O)Nc3cccc(Cl)c3)ccc21,2.3,-65,3787,-6,-1,-3,0
CCc1ccccc1Nc1nc2ccccc2n1C(C)C,1.9,-13,4850,-2,-6,-15,-2
Cc1nc(Cl)cc(NN=Cc2ccccc2)n1,4.7,nt,nt,12,9,2,nt
COC/C=C/C1=CC2=CC(=O)C(C)(OC(=O)c3cnc4ccccc4n3)C(=O)C2=CN1CC(C)C (configuration not stated),nt,-11,2476,nt,nt,nt,6
c1ccc(-c2n[nH]c(-c3ccccn3)n2)cc1,0.3,-26,2114,2,nt,nt,0
COc1ccc(CNC(=O)OCCN2CCN(S(=O)(=O)c3ccc(C)cc3)CCC2=O)cc1,7.4,-9,3093,-4,2,10,8
O=C1C(=O)N(CCc2c[nH]c3ccccc23)C(c2cccnc2)/C1=C(/O)c1ccccc1 (configuration not stated),7.5,nt,nt,26,2,1,-2
O=C(O)C1=C[C@H](c2ccc(F)cc2)C[C@H](OCCCCO)O1,nt,-11,4040,nt,nt,nt,5
O=C(N/N=C/C(Br)=C/c1ccccc1)c1cccs1,nt,-81,4648,nt,nt,nt,-7
Cc1nc(C)c(C(=O)NNS(=O)(=O)c2ccc([N+](=O)[O-])cc2)s1,6.4,-22,2368,12,10,2,7
CC(C)(C)c1ccc(C(=O)Nc2ccc(NC(=O)c3ccco3)cc2)cc1,2.5,-34,4414,12,12,1,-2
CC(=O)Oc1ccc2ccc(=O)oc2c1,nt,-12,5179,nt,nt,nt,4
CCOC(=O)C1=C(CN2CCCCCC2)NC(=O)NC1c1ccc2c(c1)OCO2 (configuration not stated),-0.7,-13,3664,5,4,2,1
O=S(=O)(c1ccc(F)c(F)c1F)N1CCN(c2ncnc3sccc23)CC1,-1.0,-17,3411,-6,0,2,nt
COc1ccc(/C=N/S(=O)(=O)CCc2ccccc2)c(OC)c1,nt,-1,2423,nt,nt,nt,5
COCC1CCN(C(=O)C2CCN(c3nc(-c4ccccc4)nc4c3CCC4)CC2)C1 (configuration not stated),4.5,2,4705,12,9,8,-1
O=C(NCc1ccc(Cl)cc1)c1ccc(CS(=O)Cc2cccc(Cl)c2)o1 (configuration not stated),2.6,-25,5265,3,13,9,7
Cc1cc(C)c(NC(=O)CN2C(=O)NC(CCc3ccccc3)C2=O)c(C)c1 (configuration not stated),1.7,8,4307,3,9,-2,4
O=C(Nc1ccc(S(=O)(=O)Nc2cnc3ccccc3n2)cc1)c1ccc(F)cc1,2.1,-16,4421,5,1,-1,-11
Cc1c(NC(=O)CN2CCC(C(N)=O)CC2)cccc1[N+](=O)[O-],6.2,-19,4237,20,6,-2,-3
O=C(Nc1nnc(C2=COCCO2)o1)c1ccc(Cl)cc1,26,-14,2157,-11,18,-2,3
COCCNC(=O)c1onc(CSc2ccc(C)c(C)c2)c1C(=O)O,3.2,-1,3798,2,12,16,1
CCCCCCNc1c([N+](=O)[O-])c(=O)sc2ccccc12,-8.2,-8,4425,7,8,0,3

# Assay outcomes: PubChem BioAssay, several laboratories
